# Compound activity from PubChem.
# GIV Gai3 FP: GIV-Galpha-i interaction inhibition; P08753; Galpha-i3/FITC-GIV peptide fluorescence polarization, 90 min; hits give low values; scaled: aluminum fluoride 0%, vehicle 100%; percent of control (FP), % (test concentration not listed); hit rate 0.42% among 210,000; AID 1224905;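 active = replicate mean at 85% of control or lower, very high polarization wells dropped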;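 also: wells of about 15 µL received 100 nL stock; the first replicate is given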
# Target sequence (P08753 whole entry, looked up): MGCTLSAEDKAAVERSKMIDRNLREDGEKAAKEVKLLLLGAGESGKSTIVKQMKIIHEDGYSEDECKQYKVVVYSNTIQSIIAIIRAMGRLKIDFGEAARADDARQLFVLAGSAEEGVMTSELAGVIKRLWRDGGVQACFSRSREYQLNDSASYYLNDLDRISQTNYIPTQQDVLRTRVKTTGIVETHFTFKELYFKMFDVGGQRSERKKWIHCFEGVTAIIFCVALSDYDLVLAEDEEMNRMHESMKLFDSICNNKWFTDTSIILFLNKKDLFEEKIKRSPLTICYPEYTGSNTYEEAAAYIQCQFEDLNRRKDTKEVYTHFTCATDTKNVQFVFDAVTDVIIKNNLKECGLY
# HCMV NEC inh: disrupts HCMV UL50-UL53 complex binding; hit rate 0.15% among 190,000; inhibition, % (no concentration beside the values); HTRF UL50-UL53 interaction, normalized percent inhibition;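 active = both replicates at 50% or more, plus weaker picks with an unusually low signal ratio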;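 also: stock transfer was 100 nL into about 20 µL; 0% = negative control wells and 100% = wells with untagged competitor protein; inactives centre near -12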
# Sa growth inh: S. aureus growth inhibition. S. aureus RN4220 growth, OD600, 20 h, 42 °C; hits give low values. relative growth, % (test concentration not listed). hit rate 0.53% among 170,000;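 active = growth at 42 °C up to 50% and 20 or more points under that at 30 °C, or under 10% at both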;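 also: 300 nL library stock went into each well; scaled to the means of positive and negative controls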
# Sa growth inh second temp: further read-out of Sa growth inh, marked with its call; relative growth, %; measured here: growth at 30 °C;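 optical density after 20 h as mean of two plates; 100% = untreated growth and lower means inhibition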
# The depositor's hits bear a star; / = no result given; & = joins results of further samples.
No.	Molecule	GIV Gai3 FP	HCMV NEC inh	Sa growth inh	Sa growth inh second temp
1	Cc1ccc(-c2ccc3nnc(C)n3n2)cc1S(=O)(=O)N1CCOCC1	98	-99	/	/
2	CN(Cc1ccccc1)C(=O)COC(=O)c1cnc(Cl)c(Cl)c1	/	-8	111	91
3	CN(C)/C=C(\C(=S)c1ccccc1)c1ccccc1	106	-9	81	85
4	Nc1nnc(SCc2nc3scc(-c4ccc(Cl)cc4)c3c(=O)[nH]2)s1	/	-2	72	87
5	O=C(Cn1ccn2nc(-c3ccc4c(c3)OCO4)cc2c1=O)NCCc1ccccc1	105	8	/	/
6	Cc1nn(-c2ccccc2Cl)c(Cl)c1/C=N/N=c1\sc2ccccc2n1C	/	-34	93	95
7	Cc1cc(NC(=O)COc2ccc(Cl)cc2Cl)n(CCC#N)n1	/	-11	104	96
8	CCN(C(=O)CSCc1ccco1)C1CCCCC1	/	7	89	97
9	CCC1CCCCN1C(=O)Nc1ccccc1 (stereo unspecified)	96	-5	108	74
10	CCC1CCCCN1C(=O)CSc1nc2c(cnn2-c2ccc(Cl)cc2)c(=O)[nH]1 (stereo unspecified)	96	-34	93	80
11	O=C(Cn1ccn(-c2ccccc2)c(=O)c1=O)NCCc1ccccc1	100	/	86	86
12	CC1=C(c2ccc(C)c(C)c2)S(=O)(=O)N=C1N1CCC(C(=O)N2CCC(C)CC2)CC1	103	/	125	88
13	CCOC(=O)c1sc(N)c(C(=O)OCC)c1CNC(C)(C)C	/	-8	86	93
14	O=S(=O)(Cc1ccccc1)Nc1ccc(S(=O)(=O)N2CCCCC2)cc1	103	-17	103	79
15	Brc1cccc(-c2nnn3c2nc(N2CCCCC2)c2ccccc23)c1	105	-1	104	85
16	O=C(CNC(=O)NC1CCCCC1)NC1CC1	/	5	100	94
17	O=C(NCCc1cn2c(n1)SCC2)c1ccc(-c2ccccc2)cc1	105	6	104	94
18	COC(=O)c1ccc(NC(=O)c2sc3nc(C)cc(=O)n3c2C(=O)Nc2ccc(C)c(C)c2)cc1	100	-14	/	/
19	NC(=O)c1cnn2c(C(F)(F)F)cc(-c3ccc(F)cc3)nc12	/	-34	102	84
20	N#Cc1ccc(-c2ccc(F)cc2F)o1	104	-14	108	87

# The last six compounds of the section above are carried over, then new ones follow.
No.	Molecule	GIV Gai3 FP	HCMV NEC inh	Sa growth inh	Sa growth inh second temp
15	Brc1cccc(-c2nnn3c2nc(N2CCCCC2)c2ccccc23)c1	105	-1	104	85
16	O=C(CNC(=O)NC1CCCCC1)NC1CC1	/	5	100	94
17	O=C(NCCc1cn2c(n1)SCC2)c1ccc(-c2ccccc2)cc1	105	6	104	94
18	COC(=O)c1ccc(NC(=O)c2sc3nc(C)cc(=O)n3c2C(=O)Nc2ccc(C)c(C)c2)cc1	100	-14	/	/
19	NC(=O)c1cnn2c(C(F)(F)F)cc(-c3ccc(F)cc3)nc12	/	-34	102	84
20	N#Cc1ccc(-c2ccc(F)cc2F)o1	104	-14	108	87
21	COc1ccc(NC(=O)CSC2=Nc3ccccc3C3=NC(CCC(=O)NC4CCCCC4)C(=O)N23)cc1Cl (stereo unspecified)	105	-6	112	82
22	Cn1c(C(=O)N2CCCC(C(=O)O)C2)cc2sccc21 (stereo unspecified)	97	-15	93	83
23	CCOc1ccccc1CN1CCC(N2CCCCC2)CC1	103	-22	90	88
24	Cc1ccc2[nH]c3c(=O)n(CC(=O)N4CCN(c5cccc(C(F)(F)F)c5)CC4)ncc3c2c1	103	/	91	88
25	CN(C)CCOC(=O)C1(c2ccccc2)CCCC1	102	/	84	85
26	O=C1CCS(=O)(=O)N1c1ccc(S(=O)(=O)Nc2ccc(F)c(Cl)c2)cc1	102	-36	/	/
27	CCn1c(N)c(C(=O)NC2CCCC2)sc1=S	97	-43	119	80
28	CCc1ccc(NC(=O)CNc2ccc(C#N)cc2)cc1	/	6	102	96
29	COC(=O)c1ccc(OC(=O)CCN2C(=O)c3ccccc3C2=O)cc1	101	/	94	85
30	O=S(=O)(NCCc1csc(-c2ccc(F)cc2)n1)c1ccc(F)cc1	100	-34	/	/
31	Cc1nc(Nc2ccccc2)sc1C(=O)Nc1ccccc1	/	-19	88	82
32	O=S(=O)(c1ccc(-c2nnc(C3CCCC3)o2)s1)N1CCOCC1	106	-6	/	/
33	Cn1c(Cc2cccs2)nnc1SCc1cc(=O)n2ccsc2n1	/	-15	86	92
34	CN1C(=O)Cc2cc(S(=O)(=O)CCC(=O)Nc3ccc(Cl)c(C(F)(F)F)c3)ccc21	107	/	104	92
35	Cc1ccc(Cn2c(=O)n(Cc3ccccc3)c(=O)c3cccnc32)c(C)c1	101	-14	105	83
36	COc1ccc(C)cc1Nc1n[nH]nc1C(=O)NCc1ccc(F)cc1	99	-36	/	/
37	COc1ccc(-c2cc(C(F)(F)F)nc(SCCC(=O)Nc3cccc(OC)c3)n2)cc1	100	-32	85	89
38	Cc1cc(=O)n2nc(-c3ccc(Cl)cc3)nc2n1CC(=O)N1CCN(c2ccc(F)cc2)CC1	100	-19	/	/
39	Cc1ccc(CCNC(=O)c2ccc3c(c2)nc2n3CCOC2)cc1	98	/	81	88
40	Nc1nnc(SCC(=O)OCC(=O)N2CCCCC2)s1	/	-3	83	95

# Continued:
No.	Molecule	GIV Gai3 FP	HCMV NEC inh	Sa growth inh	Sa growth inh second temp
41	Cc1cc(C)cc(N(CC(=O)O)S(=O)(=O)c2c(C)n[nH]c2C)c1	101	/	100	99
42	Cc1nc(S(=O)(=O)N2CCN(C3c4ccccc4-c4ccccc43)CC2)cn1C	102	14	115	96
43	CCCCNCc1cc(=O)n2[nH]c(-c3ccc(C(C)(C)C)cc3)nc2n1	99	-19	/	/
44	CN1C(=O)c2cccc3cccc(c23)[S+]1c1ccccc1C(=O)O (stereo unspecified)	104&98	-44&-29	79&96	86&87
45	Cc1ccc(-n2c(-c3ccco3)nc3c(cnn3-c3ccccc3C)c2=O)cc1	101	-10	102	106
46	CCOC(=O)c1nc(NC(C)C(=O)N2CCCCC2)c2c(C)noc2n1 (stereo unspecified)	104	-18	/	/
47	CC(C)CCNC(=O)C1CCN(S(=O)(=O)c2cccc3nsnc23)CC1	106	-26	106	92
48	CC(C)=CC(=O)Nc1sc2c(c1C#N)CCCC2	106	-10	107	93
49	CCOc1cc(-c2nc(-c3ccc(Br)cc3)no2)cc(OCC)c1OCC	109	9	97	106
50	Cc1cc(C)n(C(C)CC(=O)N2CCN(c3ccc(F)cc3)CC2)n1 (stereo unspecified)	107	6	110	105
51	CN(C)C(CNC(=O)c1n[nH]c2ccccc12)c1cccs1 (stereo unspecified)	/	-23	98	90
52	O=S(=O)(c1ccccc1)N1CN(c2cccc(C(F)(F)F)c2)c2nc3ccccc3nc21	/	-2	92	88
53	CC1(C)Oc2ccc3ccc(=O)oc3c2/C(=C/NC23CN4CN(CN(C4)C2)C3)C1=O	101	-40	94	84

# A second format for part of the listing above:
43) CCCCNCc1cc(=O)n2[nH]c(-c3ccc(C(C)(C)C)cc3)nc2n1
44) CN1C(=O)c2cccc3cccc(c23)[S+]1c1ccccc1C(=O)O (stereo unspecified)
51) CN(C)C(CNC(=O)c1n[nH]c2ccccc12)c1cccs1 (stereo unspecified)
47) CC(C)CCNC(=O)C1CCN(S(=O)(=O)c2cccc3nsnc23)CC1

Screen / compound no.,43,44,51,47
GIV Gai3 FP,99,104&98,/,106
HCMV NEC inh,-19,-44&-29,-23,-26
Sa growth inh,/,79&96,98,106
Sa growth inh second temp,/,86&87,90,92
